VDR inh: inhibitors of human vitamin D receptor; P11473; VDR-SRC2-3 peptide fluorescence polarization, 2 h; Potency, µM, for inactives: max response, negative = inhibition, actives largely listed as inhibitors; 0.93% of 400,000 active; AID 504847; active means well fitted inhibition curve with a large enough effect; inconclusive means small, poorly fitted or top-dose-only effect, or another doubt; inactive means no such curve, though single readings can be large or run the other way; further: series mostly up to about 120 µM
Target sequence (P11473 whole entry, looked up): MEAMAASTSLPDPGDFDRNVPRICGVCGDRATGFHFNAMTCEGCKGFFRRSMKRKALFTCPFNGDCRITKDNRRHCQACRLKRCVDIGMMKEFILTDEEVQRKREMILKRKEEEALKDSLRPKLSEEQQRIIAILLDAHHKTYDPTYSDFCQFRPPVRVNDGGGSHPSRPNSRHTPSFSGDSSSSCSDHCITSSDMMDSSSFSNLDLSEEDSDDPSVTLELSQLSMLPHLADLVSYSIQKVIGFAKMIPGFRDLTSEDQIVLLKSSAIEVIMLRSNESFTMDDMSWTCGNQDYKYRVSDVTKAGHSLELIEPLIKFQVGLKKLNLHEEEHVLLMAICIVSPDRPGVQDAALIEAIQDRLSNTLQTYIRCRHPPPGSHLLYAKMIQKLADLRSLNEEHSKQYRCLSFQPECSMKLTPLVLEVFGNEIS
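Signal is fluorescence polarization, reporting how far test compounds block the interaction of VDR with the SRC2-3 coregulator peptide after a 2 h room-temperature incubation.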
The depositor's hits bear a star; ? = inconclusive; & = joins results of further samples. On the % scale 0 is the no-effect control and ±100 the full control effect; potency means the concentration at half of the fitted maximal effect. An excerpt (hit frequency here may not be typical).

VDR inh | canonical_smiles
4% | CC1CCN(C(=O)CN(c2ccc3c(c2)OCO3)S(C)(=O)=O)CC1
-18% | Cc1ccsc1/C=N/NC(=S)NCCc1ccccc1
-8% | CCCC12CN3CC(C)(CN(C1)C3c1ccc(CC)cc1)C2=O (stereo not given)
-5% | Clc1ccc(C(c2nnnn2CCc2ccccc2)N2CCSCC2)cc1 (stereo not given)
11% | CC(=O)N(C(C)=O)c1ncn(C)c1S(=O)(=O)Nc1ccccc1
13% | CNS(=O)(=O)c1cccc(C(=O)NCC2CCCCC2)c1
? | Oc1ccc(N=Nc2cccc(C(F)(F)F)c2)cc1C=Nc1ccc(N2CCOCC2)cc1
10% | CCOc1ccc(C2C(=O)N(C3CCCCCC3)CC(=O)N2CCc2ccc(Cl)cc2)cc1OC (stereo not given)
-13% | COc1ccc2[nH]c3c(c2c1)CCN1C(=O)N([C@@H](C)C(=O)NCC2CCCO2)C(=O)[C@]31C (stereo not given in full)
-22% | N=C1SC(c2ccccc2)C(=O)N1c1ncc(Cc2ccccc2)s1 (stereo not given)
5% | CC1CN(C(=O)Nc2ccc(C(=O)NCCc3ccccc3)cc2)c2ccccc2S1 (stereo not given)
-1% | Cn1cc(CN2CCN(Cc3ccccc3)C(CCO)C2)c(-c2ccccc2)n1 (stereo not given)
13% | Cc1cc2ncn(C(=O)N3CCCCC3)c2cc1C
-9% | O=C(/C=C/c1cccc([N+](=O)[O-])c1)Nc1cccc(NC(=O)c2cccs2)c1
3% | NC(=O)CNC(=O)[C@@H]1CC2(CC(c3cccc([N+](=O)[O-])c3)=NO2)CN1C(=O)c1ccccc1 (stereo not given in full)
-15% | COc1cc2c(C#CCCO)c(-c3ccc(C#N)cc3)oc(=O)c2cc1OC
5% | NC(=O)c1ccccc1NC(=O)/C=C/c1ccc(Cl)cc1
17% | Cc1cccc(C(C)C)c1NC(=O)CN1C(=O)NC2(CCc3ccccc32)C1=O (stereo not given)
17% | COc1cc(C(=O)NC(=S)Nc2nccs2)cc(OC)c1OC
-3% | Cn1cc(-c2nc3cncnc3n(CCN)c2=O)c2ccccc21

Next part, overlapping the part above by four compounds.
VDR inh | canonical_smiles
5% | NC(=O)c1ccccc1NC(=O)/C=C/c1ccc(Cl)cc1
17% | Cc1cccc(C(C)C)c1NC(=O)CN1C(=O)NC2(CCc3ccccc32)C1=O (stereo not given)
17% | COc1cc(C(=O)NC(=S)Nc2nccs2)cc(OC)c1OC
-3% | Cn1cc(-c2nc3cncnc3n(CCN)c2=O)c2ccccc21
5% | CCN(c1ccccc1)S(=O)(=O)c1ccc2ccccc2c1
6% | CCOC(=O)c1nn(-c2ccccc2)c(-c2ccccc2)c1C(=O)c1ccccc1
-16% | O=C(CCCC(=O)N1CCN(c2ccccc2F)CC1)N1CCN(c2ccccc2F)CC1
-19% | COc1cc(CCc2ccc3c(c2)OCO3)oc(=O)c1
23% | Cc1cc(C)n(C(=O)c2cc(F)c(F)cc2C)n1
-9% | Cc1nn(-c2ccccc2)c(Cl)c1C(=O)NCC(C)c1ccccc1 (stereo not given)
3% | CC1CCC(NC(=O)c2cccn2C)CC1 (stereo not given)
9% | Cc1cc(C)n2c(SC(C)C(=O)NC3(C#N)CCCCC3)nnc2n1 (stereo not given)
6% | O=C(NC1CC1)C1CCN(C(=O)c2ccc(Cl)cc2Cl)CC1
-26% | COc1ccc(C(=O)n2cc(C(=O)c3cc(C)ccc3O)cn2)cc1OC
-4% | COCCCNC(=O)CS(=O)Cc1nc(-c2cccc(OC)c2)oc1C (stereo not given)
2% | Cc1c(Cl)cccc1NC(=S)N(CCN(C)C)C(C)c1ccccn1 (stereo not given)
-2% | Fc1ccc(-n2ncc3c(NCCCN4CCOCC4)ncnc32)cc1
12% | Cc1cccc(C)c1NS(=O)(=O)c1c(C)[nH]c(=O)[nH]c1=O
3% | CCCn1cnc2c(SCc3ccccn3)nc(N)nc21
17% | CCC(=O)Nn1c(C2CCC2)nc2ccccc2c1=O
22% | O=C(CSc1n[nH]c(-c2ccccc2Cl)n1)NC1CCCCC1
-6% | CCOC(=O)N1CCN(C2=CC(=O)OC23CCCCC3)CC1
-14% | CC(=O)Nc1ccc(S(=O)(=O)NCCc2cc3c(C)ccc(C)c3[nH]c2=O)cc1
-4% | COc1ccc(CCN2C(=O)c3[nH]nc(-c4ccccc4O)c3C2c2ccc(OC)cc2)cc1 (stereo not given)
18% | CN(C)c1ccc(CNc2nc(-c3ccccc3)nn2S(C)(=O)=O)cc1
-14% | CCN(CC)S(=O)(=O)c1ccc2c(c1)nc(SCC(=O)NCC1CCCO1)n2CC (stereo not given)
? | COCCC(=O)N1CCC(Oc2ccc(C(=O)N3CCCCCC3)cc2)CC1
11% | Cc1ccc2nc(SCC(=O)NC3CC3)[nH]c2c1
8% | CC(=O)CSc1nc(CCc2ccccc2)c(C#N)c(=O)[nH]1
12% | Cc1ccsc1/C=N/NC(=O)c1ccc2ccccc2c1
0% | O=C(NCC1CCCO1)c1ccccc1-c1nc(-c2ccccc2F)no1 (stereo not given)
-2% | O=C(Cc1noc2ccccc12)NNC(=S)Nc1ccccc1
4% | COc1ccc(C2NC(=O)NC3=C2CCc2ccccc23)cc1 (stereo not given)
-10% | COc1cc(/C=C2\SC(=O)N(CCNC(=O)c3cnc(C)cn3)C2=O)cc(OC)c1OC
-10% | COc1ccc(N(C(=O)Cc2cccs2)C(C(=O)NC2CCCC2)c2ccncc2)cc1 (stereo not given)
19% | Cc1ccc(NC(=O)/C=C2\NC(=O)CS2)cc1
3% | O=C(CS(=O)(=O)Cc1ccccc1)N1CCN(C(=O)c2ccco2)CC1
3% | CCN(CC(=O)Nc1ccc2c(c1)OCCO2)C(=O)CC(NC(C)=O)c1ccccc1 (stereo not given)
-6% | O=C(COc1cccc(C(F)(F)F)c1)Nc1ccc(S(=O)(=O)N2CCCC2)cc1
9% | CCN(CC)c1ccc(C(=O)NCc2ccc3c(c2)CCN3C(=O)c2ccccc2)cc1
11% | Cc1ccc(NC(=O)c2ccc(N3C(=O)C4CC=C(Cl)CC4C3=O)cc2)cc1 (stereo not given)
5% | CC(C)CCN1C(=O)CCC1(C)C(=O)NC1CCCCCCC1 (stereo not given)
12% | Cc1cc(OC(=O)c2ccccc2F)c([N+](=O)[O-])c(=O)[nH]1
14% | CCCn1c(=N)c(C(=O)NCc2ccccc2)cc2c(=O)n3cccc(C)c3nc21

An excerpt from above in order of the VDR inh value, highest first.
VDR inh | canonical_smiles
14% | CCCn1c(=N)c(C(=O)NCc2ccccc2)cc2c(=O)n3cccc(C)c3nc21
8% | CC(=O)CSc1nc(CCc2ccccc2)c(C#N)c(=O)[nH]1
-6% | O=C(COc1cccc(C(F)(F)F)c1)Nc1ccc(S(=O)(=O)N2CCCC2)cc1
-10% | COc1ccc(N(C(=O)Cc2cccs2)C(C(=O)NC2CCCC2)c2ccncc2)cc1 (stereo not given)

(continued)
VDR inh | canonical_smiles
-1% | Cc1nnc(SCCc2ccccc2)[nH]c1=O
-17% | N#Cc1sc(NCc2ccccn2)nc1Cl
-17%&3% | COc1ccc(N(C)C(=O)c2cc3c(s2)-c2c(C)cccc2OC3)c(OC)c1
-5% | CCOC(=O)CNC(c1ccccc1)c1cc(Br)ccc1NC(=O)OCC (stereo not given)
2%&-13% | COc1cc(C(CCN2CCCCC2)c2c(OC)cc(OC)c3c(-c4ccccc4)cc(=O)oc23)cc(OC)c1OC (stereo not given)
-22% | Cc1ccc(-c2nc(CS(=O)CC(=O)NCc3ccc(F)cc3)c(C)o2)cc1 (stereo not given)
-10% | COc1cc(OC)cc(C(=O)NC(C)c2cnn(-c3ccccc3C)c2C)c1 (stereo not given)
? | O=C(O)C(Cc1ccccc1)N1C(=O)/C(=C/c2cccnc2)SC1=S (stereo not given)
-8% | N#CC(C(=O)c1ccccc1)=C1SCCS1
-15% | CCCn1nc(C(=O)N(C)CC(=O)Nc2ccc(OCC)c(OCC)c2)c2ccccc2c1=O
-7% | Cc1ccc(-c2nc3ccccn3c2NC(=O)c2ccco2)cc1
-2% | Cc1ccsc1/C=N/Nc1ncnc2nc[nH]c12
-1% | CCOC(=O)c1cnc(SC2CC(=O)N(c3cccc(OC)c3)C2=O)nc1N (stereo not given)
15% | CCOc1ccc(CNC(=O)c2cc3ccccn3n2)cc1
-9% | O=C(Oc1coc(CSc2ncccn2)cc1=O)c1cccc([N+](=O)[O-])c1
-6% | O=C(NC1CCS(=O)(=O)C1)c1cnccn1 (stereo not given)
-3% | CCN(CC)C(=S)SCC(=O)Nc1ccc(F)cc1
4% | c1coc(-c2nc3c4c5c(sc4ncn3n2)CCCC5)c1
-5% | N#C/C=C\Oc1ccc(Cl)cc1N
? | CC(/C=C/c1ccccc1F)=N\NC(=O)c1ccc(Cl)cc1

Pulled by compound from the list above, six records:
VDR inh | canonical_smiles
-9% | O=C(Oc1coc(CSc2ncccn2)cc1=O)c1cccc([N+](=O)[O-])c1
4% | c1coc(-c2nc3c4c5c(sc4ncn3n2)CCCC5)c1
-7% | Cc1ccc(-c2nc3ccccn3c2NC(=O)c2ccco2)cc1
-15% | CCCn1nc(C(=O)N(C)CC(=O)Nc2ccc(OCC)c(OCC)c2)c2ccccc2c1=O
-3% | CCN(CC)C(=S)SCC(=O)Nc1ccc(F)cc1
-2% | Cc1ccsc1/C=N/Nc1ncnc2nc[nH]c12

Following part:
VDR inh | canonical_smiles
-19% | CN(CCc1ccccn1)C1CCCN(S(=O)(=O)c2ccc(F)c(Cl)c2)C1 (stereo not given)
-10%&-4% | CN(C(=O)c1nn(C)c2c1CS(=O)(=O)c1ccccc1-2)c1cccc(Cl)c1
-6% | O=C(NCc1n[nH]c(=S)n1-c1cccc(C(F)(F)F)c1)c1ccc(S(=O)(=O)N2CCCCC2)cc1
23% | CCOc1ccccc1Nc1nc2ccc(C)cc2n2cnnc12
1% | CSc1ccccc1NC(=O)CN(c1cc(C)cc(C)c1)S(C)(=O)=O
12% | O=C(CN1C(=O)NC2(CCCCCC2)C1=O)c1ccc(Cl)s1
9% | O=C(OCc1c(F)cccc1Cl)c1cc([N+](=O)[O-])ccc1N1CCOCC1
-13% | COc1cccc(NC(=O)CN(C)C(=O)c2cc(-c3ccc(F)cc3)nc3ccccc23)c1
5% | O=C(Nc1ccc2nc(-c3ccccc3)[nH]c2c1)c1cccs1
9% | O=C(Nc1ccc2nc(SCC(=O)N3CCOCC3)sc2c1)c1cccc(Br)c1
0% | COc1ccccc1OCC(=O)Nc1nc(-c2ccc(Br)cc2)ns1
4% | CCOC(=O)C(NC(C)=O)C(=O)O (stereo not given)
4% | O=C(Cc1ccc([N+](=O)[O-])cc1)Nc1cccnc1
11% | COc1ccccc1N=Nc1c(C)[nH][nH]c1=O
-5% | O=C1CSc2ccc(S(=O)(=O)N3CCN(c4ccccc4)CC3)cc2N1
8% | O=S(=O)(c1ccc(Cl)cc1)N1CCN(Cc2c[nH]c3ccccc23)CC1
-9% | CN(C)c1cccc(C(=O)n2cc(C(=O)c3cc(F)ccc3O)cn2)c1
9% | CCOC(=O)c1sc(C)c2c(=O)n(CCc3ccccc3)nnc12
-5% | CN(C)CC/C=C1\c2ccc(F)cc2Sc2cc(F)c(Cl)cc21
-24% | Cc1ccc(-n2nc3c(c2NC(=O)c2ccco2)CS(=O)(=O)C3)cc1
21% | O=C(NNC1=Nc2ccccc2SC1)c1ccccc1F
-1% | CC(C)N1CCC(N2CCN(C3CCCC3)CC2CCO)CC1 (stereo not given)
? | COc1cc(-c2cc(C(=O)Nc3cc(S(=O)(=O)N4CCOCC4)ccc3O)c3ccccc3n2)cc(OC)c1OC
-6% | CN(C)c1ccc(C=NNC(=S)Nc2ccc(F)cc2)cc1
-4% | Cc1ccc(C=NNc2ccc([N+](=O)[O-])cn2)cc1
-10% | O=C(OCC(=O)N1CCc2ccccc21)c1ccccc1
1% | OC[C@H]1O[C@@H](n2cnc3c(N[C@H]4C[C@H]5CC[C@@H]4C5)ncnc32)[C@H](O)[C@@H]1O
4% | CC(C)(C)c1nnc(NC(=O)C2CCN(C(=O)c3ccco3)CC2)s1
26% | Cc1ccc(NC(=O)CCc2nc(-c3ccccc3F)no2)c(C)c1
3% | CCOC(=O)CCc1c(C)nc2cc(-c3ccccc3OC)[nH]n2c1=O
? | O=C1Nc2ccccc2/C1=C/c1ccnc2ccccc12
-26% | CCCOc1ccc(Cc2c(O)nc(N)[nH]c2=O)cc1C
17% | CCc1cccc(C)c1NC(=O)c1cc(S(=O)(=O)N2CCN(c3ccccc3)CC2)ccc1F
-5% | Cc1ccc(NC(=O)c2ccccc2Br)cc1S(=O)(=O)N(C)C
-10% | O=C(CCl)N=c1sccn1Cc1ccccc1Cl
-17% | O=C(CC1S/C(=N\S(=O)(=O)c2ccccc2)N(c2ccccc2)C1=O)Nc1ccc(F)cc1 (stereo not given)
-4% | Cc1cccc(N2C(=O)C3C4C=CC(C5CC45)C3C2=O)n1 (stereo not given)
8% | O=C(NCCCN1CCCC1=O)c1ccccc1OCc1ccc(Cl)cc1Cl
3% | OCCCc1nc2ccccc2n1CCOc1ccccc1
-19% | Cc1cccc(C(=O)NNC(=O)c2ccc(Cl)cc2)c1O
17% | COc1ccc(OC)c(S(=O)(=O)Nc2cc3c(C(C)=O)c(C)oc3c3ccccc23)c1
4% | CC1=NN(c2nc3ccccc3[nH]2)C(=O)/C1=C/N(C)C
-11% | O=[N+]([O-])c1ccc(N2CCC(=NOCc3ccc(Cl)cc3)CC2)cc1
-8% | COc1cc2nc(=S)n3[nH]c(COc4ccccc4C)nc3c2cc1OC
-8% | CN(Cc1ccccc1)C(C(=O)NC1CCCCC1)c1ccc(Cl)cc1 (stereo not given)
-5% | CCOc1ccc(Cn2nnc(C(=O)Nc3cc(C)cc(C)c3)c2N)cc1
6% | COCCN=c1scc(-c2ccccc2)n1/N=C/c1c[nH]c2ccccc12

Assay outcomes as filed in PubChem.
